Anaer choline gr: inhibitors of anaerobic choline-dependent gram-negative bacterial growth | Gram-negative bacterium anaerobic choline minimal medium, absorbance growth; hits give low values; many inactives read as strong as hits in the columns shown | calls only | hit rate 0.2% among 55,000;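 active means growth z-score on choline under -2 at 7 or 20 h with little or no fall on glycerol, limits in tiers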;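 further: stock transfer was 300 nL into about 50 µL; the organism is E. coli; final concentration not given here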
Anaer choline gr early: further read-out of Anaer choline gr, marked with its call; z-score; measured here: choline growth z-score, timepoint 1;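 score of optical density at 7 h as mean of two plates; lower means less growth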
The depositor's hits bear a star; i = inactive.

SMILES	Anaer choline gr	Anaer choline gr early
Cn1cccc1C(=O)C(=O)N1CCc2ccccc2C1	i	0.22
Cc1nn(-c2ccc3nncn3n2)c2c1C(c1ccccc1OCc1ccccc1)CC(=O)N2 (stereo not given)	i	1.1
CC1(C)SC2C(NC(=O)C(NC(=O)N3CCNC3=O)c3ccccc3)C(=O)N2C1C(=O)O (stereo not given)	i	0.79
COc1ccc(N2C(=O)c3c(C)nc4ccccc4c3C2=O)cc1OC	i	0.35
Cc1cc2n(n1)CCCN2C(=O)CCC(=O)Nc1ccccc1C(=O)c1ccccc1	i	0.16
CCOc1cc(CNCCc2c[nH]c3ccccc23)ccc1Oc1nnnn1-c1ccccc1	i	-1.4
COc1ccc(NC(=O)CSc2ncc3c(n2)-c2ccccc2N(Cc2ccc(C)cc2)S3(=O)=O)cc1	i	0.85
Cc1ccc(C2CC(=O)Nc3cc4c(cc32)OCO4)cc1 (stereo not given)	i	-0.55
Cn1c(C(F)(F)F)nc2c3nsnc3ccc21	i	-1.7
O=C(Nc1ccc2c(c1)OCO2)c1ccc(-c2cc(N3CCOCC3)ncn2)cc1	i	-0.28
Cn1c(C2=C(O)CN(c3ccc(Cl)cc3)C2=N)nc2ccccc21	i	-0.54
COc1ccc(S(=O)(=O)N2CCC(N3CCN(Cc4ccc(F)cc4)C3=O)CC2)cc1OC	i	0.79
Cc1nc(-n2[nH]c(C)c(Cc3ccc(Cl)cc3)c2=O)sc1C(=O)NC(C)C	i	0.09
CC1(C)C2CCC1(CS(=O)(=O)O)C(=O)/C2=C\c1ccc(/C=C2\C(=O)C3(CS(=O)(=O)O)CCC2C3(C)C)cc1	i	0.28
CCOC(=O)c1[nH]c(C)c(CCC(=O)N(C)Cc2ccccc2)c1C	i	-0.46
Cc1ccc(Cl)cc1NC(=O)C1CCN(c2ncnc3onc(-c4ccc(F)cc4)c23)CC1	i	-0.04
CCOC(=O)c1ccccc1NC(=O)CSc1nc2c(c(=O)n1C)SCC2	i	0.3
Cc1nn2c(S(=O)(=O)N3CCCC3)c(C)nc2s1	i	0.19
COCCNc1ccc2nnc(C)n2n1	i	-0.33
COc1ccccc1CC(=O)Nc1ccc(-c2noc(-c3ccc(F)cc3)n2)cc1	i	2.4
CCOc1ccccc1NC(=O)Cn1c(=O)n(CCCCC(=O)NC(C)C)c(=O)c2ccccc21	i	-0.45
O=c1[nH]c2cc(Cl)c(S(=O)(=O)Nc3ccccc3)cc2[nH]1	i	0.31
COc1ccc2c(c1)CCc1c-2n[nH]c1C(=O)NC1CCCC1	i	0.32
Cn1cc(S(=O)(=O)N2CCCCC2)cc1C(=O)N1CCN(c2ccccc2F)CC1	i	-0.55
CC(=O)Nc1cccc(-c2nc(-c3cccc(NC(=O)Nc4ccccc4)c3)no2)c1C	i	0.38

(continued)
SMILES	Anaer choline gr	Anaer choline gr early
Brc1ccc(-c2ccc(CNCC3CCNCC3)o2)cc1	i	-1.2
Cc1cc(C)c2c(C)c(C(=O)Nc3ccc4c(c3)NC(=O)CO4)oc2c1	i	-0.06
Cc1ccc(-c2nc(CSc3nc(C)c(C)c(=O)[nH]3)c(C)o2)cc1	i	-0.46
COC(=O)c1cccc(NC(=NCc2ccncc2)NC(=O)c2ccc3c(c2)OCO3)c1	i	-0.16
O=C(c1ccc(Cn2c(=O)c3cccn3c3cccnc32)cc1)N1CCN(c2ccccc2)CC1	i	0.55
CCOC(=O)C1CCN(C(=O)c2cc3c(=O)oc4ccccc4c3s2)CC1	i	-1.1
Cn1c(=O)n(CCC(=O)N2CCCC2)c(=O)c2cc(S(=O)(=O)Nc3cccnc3)ccc21	i	-0.89
CCOC(=O)O[C@]1(C(=O)COC(=O)CC)CC[C@H]2[C@@H]3CCC4=CC(=O)C=C[C@]4(C)[C@H]3[C@@H](O)C[C@@]21C	i	-0.13
CCOc1ccc(-c2noc(C3CCCN(S(=O)(=O)c4ccc(C)cc4)C3)n2)cc1 (stereo not given)	i	0.76
CNc1ncccc1-c1nc(-c2cccc(C)c2)no1	i	1.2
O=C(CCCc1nc2cccnc2n1C1CCCCC1)Nc1ccc(F)cc1	i	-0.03
Cc1cc(N(C)C)n2nc(-c3ccccc3)c(C)c2n1	i	1.9
COC(=O)c1cccc(NC(=O)Nc2c(C)n(C)n(-c3ccccc3)c2=O)c1	i	0.32
O=C(NCCc1ccccc1)c1cc(-c2ccc(F)cc2)nc2n[nH]c(-c3ccccc3)c12	i	0.48
Cc1cc(C)nc(NC(c2cccc(Cl)c2)c2c(NC(=O)c3ccccc3)sc(C)c2C)n1 (stereo not given)	i	0.75
CN1c2ccc(Cl)cc2-c2nc(SCC(=O)Nc3nccs3)ncc2S1(=O)=O	i	2.5
O=C(NCCc1c[nH]c2ccccc12)c1ccc(N2C(=O)CCS2(=O)=O)cc1Cl	i	-0.69
COc1ccc(CC(=O)NCCc2csc3nc(-c4cccc(F)c4)nn23)cc1OC	i	0.17
Cc1ccc(C(=O)Nc2cnc(N3CCNCC3)c(C(=O)N(CC(C)C)CC(C)C)c2)cc1	i	0.15
Cc1cc(C)c2c(=O)[nH]n(C(C)C)c2n1	i	-0.18
O=C(NCc1cccnc1)c1cccn1-c1nnc(N2CCOCC2)s1	i	-0.78
CCc1cc(C2CCCN2S(=O)(=O)c2ccc(Cl)cc2)on1 (stereo not given)	i	-0.25
Cc1cccc(OC(C)C(=O)Oc2cccc(-n3cnnn3)c2)c1C (stereo not given)	i	-1.1
Cc1cccc(-c2ccc(N3CCCC(C(=O)NC4CCCC4)C3)nn2)c1 (stereo not given)	i	0.48
Cc1ccc(-n2c(SCC(=O)Nc3ccc4[nH]c(=O)[nH]c4c3)nnc2-c2cc3ccccc3o2)cc1	i	-1.2

The list goes on:
SMILES	Anaer choline gr	Anaer choline gr early
Cn1nc(C(F)(F)F)cc1C(=O)N1CCCC1c1ccc(F)cc1 (stereo not given)	i	-0.59
COCCn1c(C2CCN(S(=O)(=O)c3ccc(C(C)C)cc3)C2)nc2cccnc21 (stereo not given)	i	1.2
C=CCn1c(=O)[nH]c2ccccc2c1=O	i	-0.44
Cc1nc(-c2cc(NC(=O)c3ccc(F)c(Cl)c3)c(C)s2)no1	i	2
CCNC(=O)c1ccc(-c2nc3cc(NS(=O)(=O)c4ccc(C(C)C)cc4)ccc3n2C)cc1	i	1.2
Cc1oc(-c2ccccc2)nc1Cn1cnc2oc(C)c(C)c2c1=O	i	0.03
Clc1ccc(-c2noc(-c3ccc(N4CCN(Cc5ccc6c(c5)OCO6)CC4)nn3)n2)cc1	i	-0.96
Cc1cccc(CC(=O)N2CCc3c2ccc(-c2cn(C)c4ncnc(N)c24)c3F)n1	i	-0.14
COc1cccc(Nc2cc(C)nc3c(C)c(-c4ccc(OC)c(OC)c4)nn23)c1	i	1.3
Cc1noc(Cn2c(=O)c3cc4c(cc3n(CC(=O)Nc3cccc(Cl)c3)c2=O)OCO4)n1	i	1.3
COc1ccc(NC(=O)N2CCc3nc[nH]c3C2)c(OC)c1	i	-0.7
CCCCNC(=O)c1cccc(-c2cnc3ccccc3c2)c1	i	0.02
Cc1nc2cc(-c3noc(Cc4ccc(Cl)cc4)n3)ccc2o1	i	-1.3
O=C(Nc1ccc2c(c1)OCO2)Nc1c(-c2cccnc2)[nH]c2ccc(F)cc12	i	0.13
CCC(C)(N)c1nnnn1-c1ccccc1C (stereo not given)	i	-1.7
O=C(NCCN1CCCC1)C1CCN(c2nc(-c3ccc(Cl)cc3)no2)CC1	i	-1.5
O=C(Nc1cc(-c2ccccc2Cl)nn1-c1ccccc1)c1ccccc1	i	-0.36
O=C(c1cccc(-c2noc(-c3ccc4cc[nH]c4c3)n2)c1)N1CCCC1	i	-1.5
COc1ccc(CC(=O)Oc2cccc(-n3cnnn3)c2)cc1	i	-0.6
Cc1csc(NC(=O)C(C)NS(=O)(=O)c2cc(-c3noc(C4CC4)n3)ccc2C)n1 (stereo not given)	i	0.49
c1ccc(Nc2ncnc3c2oc2ccccc23)cc1	i	0.92
CC1CCc2nc3ncn(CCN4CCOCC4)c(=O)c3cc2C1 (stereo not given)	i	-0.54
Cc1cc2c(cc1S(=O)(=O)N1CCCC1C(=O)N1CCc3ccccc31)OC(C)C(=O)N2 (stereo not given)	i	-1.4
COc1ccc(Nc2nc(-c3nnn(-c4ccc(F)cc4F)c3C)ns2)cc1OC	i	0.6
O=C(O)c1cc(N2CCN(C(c3ccc(F)cc3)c3ccc(F)cc3)CC2)nc2ccccc12	i	-0.46

Pulled by compound from the list above:
SMILES	Anaer choline gr	Anaer choline gr early
O=C(c1cccc(-c2noc(-c3ccc4cc[nH]c4c3)n2)c1)N1CCCC1	i	-1.5
Cc1cc2c(cc1S(=O)(=O)N1CCCC1C(=O)N1CCc3ccccc31)OC(C)C(=O)N2 (stereo not given)	i	-1.4
Cc1cccc(CC(=O)N2CCc3c2ccc(-c2cn(C)c4ncnc(N)c24)c3F)n1	i	-0.14

Next results
SMILES	Anaer choline gr	Anaer choline gr early
Cn1c(C(=O)NCCCN2CCC(Cc3ccccc3)CC2)cc2sccc21	i	-0.32
N#Cc1cccc(S(=O)(=O)N2CCC(N3CCOCC3)CC2)c1	i	-0.31
O=C(CCc1nnc2ccc(NCc3ccccc3)nn12)NCC1CCCO1 (stereo not given)	i	0.37
CCC(=O)Nc1ccc(S(=O)(=O)N2CCC[C@@H]2C(=O)NCCc2csc(C)n2)cc1	i	0.98
Cc1cc(N2CCCC2)n2nc(C(F)(F)F)c(-c3ccc(F)cc3)c2n1	i	-1.1
O=C(C1CCCO1)N1CCN(c2ncnc3c2CCC3)CC1 (stereo not given)	i	-0.25
COc1ccc(-c2cn3c(n2)sc2cc(C(=O)N4CCN(c5ccc(Cl)cc5)CC4)ccc23)cc1	i	-1.2
CCOC(=O)C1CCN(c2nnc(Cc3cccnc3)c3ccccc23)CC1	i	-0.8
CCC(C)(C)NC(=O)CN1C(=O)C(C)(C)c2ccccc21	i	-0.18
CCOC(=O)c1nc(Nc2ccc(F)cc2)c2c(CC)noc2n1	i	-0.1
O=C(Nc1ccc2c(c1)OCCO2)c1cccc(Nc2ncc(-c3cccc(F)c3)cn2)c1	i	0.19
CC(C)OCCCNC(=O)CCC(=O)N1CCSc2ncccc21	i	-0.46
Cc1ccc(NC(=O)CCc2nc(CSc3nc4ccccc4[nH]3)no2)cc1Cl	i	-1.3
Cc1c(C(=O)O)cccc1-n1c(C)nc2cccnc21	i	0.23
CN1CCN(C(=O)Nc2ccc(F)cc2)c2ccccc21	i	-0.25
CCCCN(C)S(=O)(=O)c1cc(-c2nnc(C)o2)co1	i	-0.67
COc1cc(OC)c(Nc2ncnc3sc(C(=O)O)c(C)c23)cc1Cl	i	-0.27
Cc1nc(-c2cc(S(=O)(=O)N3CCOCC3)c(C)n2C)sc1C	i	0.3
Cc1cc(NC(=O)C2CCCN(S(=O)(=O)c3cc(-c4noc(C5CCC5)n4)cs3)C2)no1 (stereo not given)	i	-1
Cc1ccc(Nc2cc(C(C)C)nc3nc(-c4cccnc4)nn23)cc1C	i	0.41
Cc1cc(NCC(C)C)n2nc(C(F)(F)F)c(-c3ccc(Cl)cc3)c2n1	i	1.1
C[N+]1(C)[C@@H]2CC[C@H]1CC(OC(=O)C(O)c1ccccc1)C2 (stereo not given in full)	i	0.6
C=CCc1ccc(O)c(-c2ccc(O)c(CC=C)c2)c1	i	0.63
CCn1c(C)c(-c2nc(C3CC3)no2)c(S(=O)(=O)N2CCCN(C)CC2)c1C	i	-0.44
Cc1ccc2c(c1)n(Cc1cccc(F)c1)c(=O)c1nc(C(=O)Nc3ccc(Oc4ccccc4)cc3)nn12	i	-0.05

(list continues)
SMILES	Anaer choline gr	Anaer choline gr early
Cc1ccc(-c2nccc(N3CCCC(C(=O)NC4CCCCC4)C3)n2)cc1 (stereo not given)	i	0.97
O=c1c2c3c(sc2nc2n1CCCC2)CCCC3	i	0
COc1cccc(C(=O)N2CCC(c3nc4ccccc4s3)CC2)c1	i	-0.01
CCOC(=O)C1CCN(c2c(C(=O)c3ccccc3)cnc3ccc(CC)cc23)CC1	i	0.66
COc1ccc(NC(=O)CCn2cnc3ccccc3c2=O)cc1	i	-0.76
CCN1CCN(c2cc(C(=O)O)c3cc(NS(=O)(=O)c4ccccc4Cl)ccc3n2)CC1	i	0.43
CCOC(=O)c1[nH]c(C)c(CN(C(=O)NCC(C)C)C2CCCCC2)c1C	i	-0.2
CCc1ccccc1NS(=O)(=O)c1ccc2c(c1)N(C(C)=O)CCS2	i	0.2
CCCCN1CCN(C(=O)c2nc(N3CCSCC3)c3cn(C)nc3n2)CC1	i	0.09
O=C(NC1CCCc2ccccc21)c1cc2n(n1)CCCN(Cc1ccc(F)cc1)C2=O (stereo not given)	i	-1.3
O=C(NC1CCCC1)c1ccc(Oc2ccnc(-c3ccc(F)cc3)n2)cc1	i	-0.01
c1cncc(CSc2nc3ncccc3o2)c1	i	-1.7
CCOc1ccccc1C(=O)N1CSC[C@@H]1C(=O)NCc1csc(C)n1	i	0.94
COc1cccc(C2CC(=O)NC3=C2C(=O)CC(C)(C)C3)c1 (stereo not given)	i	-0.8

At a glance, part of the list above:
SMILES	Anaer choline gr	Anaer choline gr early
Cc1ccc(-c2nccc(N3CCCC(C(=O)NC4CCCCC4)C3)n2)cc1 (stereo not given)	i	0.97
O=c1c2c3c(sc2nc2n1CCCC2)CCCC3	i	0

Compounds shown so far with a furan ring, fused or not:
SMILES	Anaer choline gr	Anaer choline gr early
Brc1ccc(-c2ccc(CNCC3CCNCC3)o2)cc1	i	-1.2
Cc1cc(C)c2c(C)c(C(=O)Nc3ccc4c(c3)NC(=O)CO4)oc2c1	i	-0.06
Cc1ccc(-n2c(SCC(=O)Nc3ccc4[nH]c(=O)[nH]c4c3)nnc2-c2cc3ccccc3o2)cc1	i	-1.2
Cc1oc(-c2ccccc2)nc1Cn1cnc2oc(C)c(C)c2c1=O	i	0.03
c1ccc(Nc2ncnc3c2oc2ccccc23)cc1	i	0.92
CCCCN(C)S(=O)(=O)c1cc(-c2nnc(C)o2)co1	i	-0.67

Compound activity deposited in PubChem BioAssay by ICCB-Longwood Screening Facility, Harvard Medical School.

Not all compounds are listed. The share of hits here may be higher or lower than overall.
